miR-21 reporter: raises the signal of a miR-21 reporter; HeLa miR-21 FLuc reporter, luciferase, 48 h; Potency, µM (top dose mostly 38.3 µM), inactives show at the top dose reporter change, positive = more light; 340,000 tested, under 10 active; active = well fitted rising curve with a large enough effect; inconclusive = small, poorly fitted or top-dose-only effect; inactive = no such curve, though single readings can be large or run the other way;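 further: % of control where 0% means no effect; miR-21 action dims this reporter so a rising signal means less miR-21 action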
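Using DMEM plus 10% FBS, HeLa miR-21-FLuc cells are incubated with test compounds (final up to about 40uM) for 48 hours; firefly luciferase signal is then imaged following reagent-mediated lysis.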
Rango release inh: prevents RanGTP from dissociating the Rango-importin beta complex. Biochemical FRET Rango-importin beta, RanGTP-induced dissociation. O95149+P62826. 340,000 tested, 0.071% active. Potency, µM (series often up to 46.1 µM), for the others: top-dose activity change, negative = inhibition. AID 540253; active means falling FRET ratio curve, often poorly fitted, with flat reads before Ran was added; inconclusive means other falling curves, or compound fluorescence or quenching; inactive means flat or rising ratio curve;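 further: potency means the concentration at half of the fitted maximal effect; % of control where 0% means no effect; nearly all actives have a fitted effect of over 45% in size; -100% = wells without RanGTP and RCC1; the record marks most hits as doubtful in a second field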
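FRET read at 45 min, room temperature: inhibitors block the CFP/YFP signal rise when RanGTP (0.6 uM Ran, 2 mM GTP, 0.2 uM RCC1) frees Rango (0.1 uM) from importin beta (0.25 uM). Pre-read after 5 min compound exposure flags interference.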
Rango complex inh: inhibitors of Rango-importin beta complex formation. Potency, µM (highest dose often 92.2 µM), for inactives: at the highest dose inhibition of complex formation. Q14974. 340,000 tested, 0.031% active. AID 540263. Rango CFP/YFP FRET sensor + importin beta, 45 min; active = rising FRET ratio curve, often small or poorly fitted; inconclusive = mostly compound fluorescence or quenching in the first reads; inactive = flat curves in all reads;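 further: potency means the concentration at half of the fitted maximal effect; 0% = DMSO wells and 100% = buffer wells lacking importin beta; nearly all actives have a fitted effect of over 15% in size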
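FRET biosensor Rango (snurportin 1 IBB between N-terminal EYFP and C-terminal Cerulean), 50 nM in PBS/1 mM DTT/0.02% Tween-20/0.1% BSA, preincubated 5 min RT with compound; 0.125 microM importin beta added, 45 min RT, CFP/YFP FRET ratio read.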
GLA inh pH 4.5: alpha-galactosidase A (human) inhibition, pH 4.5 | 230,000 tested, under 10 active | purified enzyme, 4-MU-alpha-Gal fluorescence, pH 4.5 | AID 1467 | activity change, negative = inhibition, % at 105 µM | P06280; inconclusive = small, poorly fitted or top-dose-only inhibition, or a rising curve; inactive = flat fitted curve, though single readings scatter; no compound was filed as active;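 further: 0% = full activity with enzyme and -100% = basal without enzyme; dose as in the result columns while the protocol names 77 µM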
Target sequence (P06280 whole entry, looked up): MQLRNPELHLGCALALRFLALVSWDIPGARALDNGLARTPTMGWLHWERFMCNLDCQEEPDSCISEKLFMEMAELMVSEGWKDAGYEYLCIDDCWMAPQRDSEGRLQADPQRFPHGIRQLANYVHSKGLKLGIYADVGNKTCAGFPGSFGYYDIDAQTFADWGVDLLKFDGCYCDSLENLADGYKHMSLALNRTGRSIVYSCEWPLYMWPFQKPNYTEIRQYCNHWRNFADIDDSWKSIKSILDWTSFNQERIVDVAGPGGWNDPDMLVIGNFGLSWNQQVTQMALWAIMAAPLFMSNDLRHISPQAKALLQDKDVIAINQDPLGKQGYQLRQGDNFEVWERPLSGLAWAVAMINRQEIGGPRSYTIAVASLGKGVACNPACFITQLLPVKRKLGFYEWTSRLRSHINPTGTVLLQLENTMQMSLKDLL
The depositor's hits bear a star; ? = inconclusive; nt = no result given; & = joins results of further samples.

The opening 4 entries as a preview:
Short keys: A = miR-21 reporter; B = Rango release inh; C = Rango complex inh; D = GLA inh pH 4.5
CCNc1c(NS(=O)(=O)c2ccc(OC)c(Cl)c2)c(=O)oc2ccccc12
  A = -3%	B = 1%	C = -2.3%	D = nt
Cc1nnc2n1NC(c1ccc(Cl)cc1)C(C(=O)N(C)C1CCCCC1)S2 (stereo not given)
  A = -1%	B = 5%	C = 0.1%	D = -11
COC(=O)c1c(NC(=O)Cc2cccs2)sc(C(=O)N2CCCCC2)c1C
  A = -6%	B = -3%	C = 5.1%	D = 1
Cc1sc(NC(=O)C2CCCCC2C(=O)O)c(C(N)=O)c1C (stereo not given)
  A = -8%	B = 0%	C = 1.7%	D = 3

Main list (from the top)
Short keys: A = miR-21 reporter; B = Rango release inh; C = Rango complex inh; D = GLA inh pH 4.5
CCNc1c(NS(=O)(=O)c2ccc(OC)c(Cl)c2)c(=O)oc2ccccc12
  A = -3%	B = 1%	C = -2.3%	D = nt
Cc1nnc2n1NC(c1ccc(Cl)cc1)C(C(=O)N(C)C1CCCCC1)S2 (stereo not given)
  A = -1%	B = 5%	C = 0.1%	D = -11
COC(=O)c1c(NC(=O)Cc2cccs2)sc(C(=O)N2CCCCC2)c1C
  A = -6%	B = -3%	C = 5.1%	D = 1
Cc1sc(NC(=O)C2CCCCC2C(=O)O)c(C(N)=O)c1C (stereo not given)
  A = -8%	B = 0%	C = 1.7%	D = 3
Cc1nnc(NC(=O)Cn2nc(C)c3ccccc3c2=O)s1
  A = -2%	B = 13%	C = -1.2%	D = -4
CC(=O)Nc1cccc(-c2csc(NCc3ccco3)n2)c1
  A = -17%	B = -26%	C = -3.1%	D = 1
CC(C)c1ccc(NC(=S)Nc2ccc(OC(F)(F)F)cc2)cc1
  A = -11%	B = -8%	C = -2.0%	D = 5
COc1ccccc1/C=N/N1C(=O)C2C3C=CC(CC3)C2C1=O (stereo not given)
  A = 0%	B = 4%	C = 1.5%	D = -11
O=C(O)/C(=C\c1cccs1)Sc1nnc(-c2ccc(F)cc2)o1
  A = -3%	B = 11%	C = 5.6%	D = 0
Cc1ccc(N(C(=O)c2cnccn2)C(C(=O)NC2CCCCC2)c2ccc(O)cc2)cc1 (stereo not given)
  A = -7%	B = -22%	C = 5.3%	D = 3
O=C(CCOc1ccccc1)Nc1ccc(Br)cc1
  A = -53%	B = -1%	C = 3.0%	D = nt
O=C(COC(=O)CN1C(=O)C2CCCCC2C1=O)Nc1cc(S(=O)(=O)N2CCOCC2)ccc1Cl (stereo not given)
  A = -1%	B = 19%	C = -1.5%	D = 2
CCN(CC)S(=O)(=O)c1ccc(N(C)Cc2ccc(C(F)(F)F)cc2)nc1
  A = 21%	B = -15%	C = -3.4%	D = -4
CC(=O)OCC(=O)Nc1ccc(Cl)cc1Cl
  A = -4%	B = -9%	C = 3.4%	D = 10
O=C(NN=Cc1ccc(N2CCOCC2)s1)c1ccc([N+](=O)[O-])cc1
  A = nt	B = 8%	C = 0.7%	D = nt
Cc1ccc(S(=O)(=O)NCc2ccc(C(=O)NC3CCC(C)CC3)cc2)cc1 (stereo not given)
  A = 4%	B = 4%	C = -0.4%	D = nt
Cc1cc(N2CCN(C3CCCC3)CC2)n2c(nc3ccccc32)c1C#N
  A = -3%	B = ?	C = ?	D = 0
O=C(O)c1ccc(NC(=O)c2cccc(N3C(=O)C4C5CCC(C5)C4C3=O)c2)cc1 (stereo not given)
  A = -4%	B = -5%	C = -1.8%	D = 4
Cc1nc2ccccc2c(=O)n1NC(=O)CCC(=O)O
  A = 0%	B = 1%	C = 1.9%	D = -5
CN(C)C=NC(=O)c1ccc([N+](=O)[O-])c(CS(=O)(=O)c2ccc(Cl)cc2)c1
  A = -2%	B = -14%	C = 7.0%	D = -2
O=C(NNC(=O)C1CC(=O)N(Cc2ccccc2)C1)c1ccc(Br)cc1 (stereo not given)
  A = 0%	B = -11%	C = 5.1%	D = nt
Cc1cccc(N2CCN(C(=O)c3ccc(Cl)c(S(=O)(=O)NCc4ccco4)c3)CC2)c1C
  A = 30%	B = 4%	C = 0.6%	D = -6
FC(F)(F)c1cnc(/C=C/Nc2ccccc2Cl)c(Cl)c1
  A = 3%	B = 8%	C = -4.9%	D = 4
COc1ccc(CCNC(=O)c2cc3c(=O)n4ccccc4nc3n(CCCN3CCOCC3)c2=N)cc1OC
  A = 6%	B = ?	C = ?	D = nt
COc1ccc(C(=O)NCCC2=CCCCC2)cc1
  A = 10%	B = 11%	C = 5.4%	D = 4
Cc1ccc(-c2nc(SCC(=O)NCCN3C(=O)CSC3=O)[nH]c2-c2ccc(C)cc2)cc1
  A = 0%	B = nt	C = nt	D = -1
O=C(O)c1ccc(NC(=O)c2cccs2)cc1
  A = -5%	B = 2%	C = 4.1%	D = 8
O=C(NCc1ccccc1)C1CCCN(S(=O)(=O)c2cccc3nsnc23)C1 (stereo not given)
  A = 0%&-3%	B = 17%	C = -3.9%	D = nt
COc1cccc(-n2c(SCC(=O)NCCc3ccccc3)nnc2-c2ccoc2C)c1
  A = -2%	B = 1%	C = -0.3%	D = -4
C=CCn1c(SCC(=O)Nc2cc(C)on2)nnc1-c1ccccc1OC
  A = nt	B = 15%	C = -0.6%	D = nt
Clc1ccccc1C1=CC(c2ccco2)n2ncnc2N1 (stereo not given)
  A = -3%	B = ?	C = ?	D = 0
COc1ccccc1C(=O)NCCCn1cc(Br)c(C)n1
  A = -9%	B = 0%	C = -0.2%	D = -11
Cc1ccc(NC(=S)N(CCN2CCCCC2)Cc2ccco2)cc1Cl
  A = 6%	B = 4%	C = 0.9%	D = 7
COc1ccc(CNC(=O)COc2ccc(S(=O)(=O)N3CCOCC3)cc2C)cc1
  A = 2%	B = -10%	C = 0.1%	D = nt
S=C(Nc1ccc2c(c1)OCO2)Nc1ccccc1Cl
  A = -39%	B = -11%	C = 1.2%	D = ?
COc1cccc(-n2c(=O)c3sccc3n(CC(=O)NC3CCCC3)c2=O)c1
  A = 0%	B = 33%	C = 4.8%	D = nt
COc1ccc(NC(=O)CC2C(=O)N(c3ccccc3)C(=O)N2CCc2cccs2)cc1 (stereo not given)
  A = -5%	B = -1%	C = -4.7%	D = 8
Cc1cc(C2C(=O)CC(=O)CC2c2ccccc2)on1 (stereo not given)
  A = -4%	B = -23%	C = -2.3%	D = 4
CC1=C(CC(=O)c2ccc(Cl)cc2)C(=O)c2ccccc2C1=O
  A = -28%	B = -5%	C = 1.6%	D = -2
OCCC1CN(C/C(Cl)=C/c2ccccc2)CCN1C1CCCC1 (stereo not given)
  A = -6%	B = -24%	C = 3.7%	D = -18
CC(Sc1ccc(Cl)cc1)C(=O)NNC(=O)c1csc(N2CCOCC2)n1 (stereo not given)
  A = 0%	B = -12%	C = 2.2%	D = nt
CC(=O)N1Cc2ccccc2C(C)CC12CCCC2 (stereo not given)
  A = 1%	B = 26%	C = 1.0%	D = 4
Nc1ccn([C@@H]2O[C@H](CO)[C@@H](O)[C@H]2O)c(=O)n1
  A = nt	B = -16%	C = 3.3%	D = -2

Another view of part of the listing above.
smiles	miR-21 reporter	Rango release inh	Rango complex inh	GLA inh pH 4.5
OCCC1CN(C/C(Cl)=C/c2ccccc2)CCN1C1CCCC1 (stereo not given)	-6%	-24%	3.7%	-18
CC(Sc1ccc(Cl)cc1)C(=O)NNC(=O)c1csc(N2CCOCC2)n1 (stereo not given)	0%	-12%	2.2%	nt

Part of the list above, set out differently.
Structure: Cc1ccc(-c2nc(SCC(=O)NCCN3C(=O)CSC3=O)[nH]c2-c2ccc(C)cc2)cc1
- miR-21 reporter = 0%
- Rango release inh = nt
- Rango complex inh = nt
- GLA inh pH 4.5 = -1
Structure: O=C(O)c1ccc(NC(=O)c2cccs2)cc1
- miR-21 reporter = -5%
- Rango release inh = 2%
- Rango complex inh = 4.1%
- GLA inh pH 4.5 = 8

This is a subset; count on the stated rates, not on these rows.
